Screens deposited in PubChem by Broad Institute.
Vaccinia inh – blocks a specific stage of Vaccinia orthopoxvirus infection, primary screen, cell-based, single point; 0.01% of 89,000 active; activity change (mCherry), % (no concentration beside the values); AID 1053133, 2014; Vaccinia-infected cells, mCherry/Venus stage reporter fluorescence; hits give low values; some inactives read as strong as hits;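 active = mCherry past -33% and 40 or more points under the early reporter, replicates agreeing; inconclusive = past -33% without that gap or agreement; tested in A549 cells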;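 note: scaled between vehicle wells and reference inhibitor wells; 23 nL library stock went into each well; one replicate is shown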
Vaccinia inh Venus – also measured in Vaccinia inh; calls as there; activity change (Venus), %; measured here: Venus reporter, other viral stage;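 negative = less Venus signal; first of two replicates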
Active calls of the source: *; ? = inconclusive; nt = no result given. A portion of the library; the hit share may differ from the screen's.

SMILES | Vaccinia inh | Vaccinia inh Venus
C[C@@H]1CN([C@H](C)CO)C(=O)c2cccc(NC(=O)C3CC3)c2O[C@H]1CN(C)Cc1ccc(-c2ccccc2)cc1 | -22.8 | -12.8
COc1ccc(NC(=O)Nc2ccc3c(c2)C(=O)N([C@H](C)CO)C[C@H](C)[C@H](CN(C)S(=O)(=O)c2ccccc2)O3)cc1 | -2.9 | -1.8
Cc1ccc(S(=O)(=O)N(C)C[C@@H]2Oc3c(NC(=O)NC4CCCCC4)cccc3C(=O)N([C@H](C)CO)C[C@@H]2C)cc1 | ? | nt
N#Cc1ccc(-c2ccc3c(c2)[C@H]2[C@H](CCN2C(=O)C2CCC2)[C@H](CO)N3)cc1 | ? | nt
O=C(NC[C@@H]1N[C@@H](CO)[C@H]1c1ccccc1)C1CCCC1 | -5.2 | -0.7
CO[C@H]1CN(C)C(=O)c2ccc(NC(=O)C3CCC3)cc2OC[C@H](C)N(Cc2nccs2)C[C@H]1C | -5.1 | -8.6
CCCNC(=O)N1CC2(C1)CN(Cc1ccccn1)[C@@H](CO)c1c2c2ccc(OC)cc2n1C | 15.0 | 8.0
O=C(N[C@@H]1CC[C@H](CCNS(=O)(=O)c2ccccc2Cl)O[C@@H]1CO)c1ccc(F)cc1 | -11.0 | -11.1
CN(C)C(=O)[C@@H]1[C@@H](CO)[C@@H]2Cn3c(ccc(-c4ccccc4)c3=O)[C@H]1N2C(=O)C1CC1 | 5.7 | 6.1
O=C(C[C@H]1C[C@H]2c3cc(NC(=O)c4ccc5c(c4)OCO5)ccc3O[C@H]2[C@@H](CO)O1)NC1CCCC1 | -0.3 | 4.0
C[C@H]1CN([C@@H](C)CO)C(=O)Cc2cc(NC(=O)Nc3ccc(C(F)(F)F)cc3)ccc2O[C@@H]1CN(C)C(=O)NC1CCCCC1 | -9.5 | -4.2
N#C[C@@H]1N[C@@H](CO)[C@@H]1c1ccc(-c2cccc(F)c2)cc1 | -3.8 | -3.9
COC(=O)C[C@@H]1CC[C@@H]2[C@H](COC[C@H](O)CN2S(=O)(=O)c2ccc(F)cc2)O1 | -4.0 | 6.0
COc1ccc(S(=O)(=O)N(C)C[C@@H]2Oc3ccc(NS(=O)(=O)c4c(C)noc4C)cc3CC(=O)N([C@@H](C)CO)C[C@@H]2C)cc1 | 21.0 | 3.8
COc1ccc2c3c(n(C)c2c1)[C@H](CO)N(C)CC31CCN(C(=O)NC(C)C)CC1 | 7.3 | 5.7
CN(C)C(=O)c1ccc(-c2ccc3c(c2)[C@H]2[C@H](CCN2C(=O)C2CCC2)[C@@H](CO)N3C)cc1 | -27.9 | -18.9
COc1ccc(S(=O)(=O)Nc2ccc3c(c2)C(=O)N([C@@H](C)CO)C[C@H](C)[C@@H](CN(C)Cc2ccc(C(F)(F)F)cc2)OCCCC[C@@H](C)O3)cc1 | ? | nt
COc1ccccc1-c1ccccc1[C@@H]1[C@@H](C#N)N(C(=O)CN(C)C)[C@H]1CO | -5.5 | 0.9
CN1c2ccc(C#Cc3cccnc3)cc2[C@@H]2[C@@H](CCN2C(=O)C2CCCC2)[C@@H]1CO | -2.0 | 12.3
C[C@H]1CN([C@@H](C)CO)C(=O)c2cc(NC(=O)Nc3ccccc3)ccc2O[C@@H]1CN(C)C(=O)Nc1ccc(F)cc1 | 15.4 | 5.8
C[C@H](CO)N1C[C@H](C)[C@@H](CN(C)Cc2ccc(C(F)(F)F)cc2)Oc2ccc(NC(=O)CCC(F)(F)F)cc2C1=O | 10.9 | 2.2
N#Cc1ccc(-c2ccc([C@@H]3[C@H]4CN(C(=O)C5CCCCC5)CC(=O)N4[C@H]3CO)cc2)cc1 | -15.1 | -23.3
C[C@@H]1CN([C@H](C)CO)C(=O)c2cc(NC(=O)c3ccncc3)ccc2O[C@@H](C)CCCCO[C@@H]1CN(C)S(=O)(=O)c1ccc(F)cc1 | 18.9 | 1.2
C[C@H](CO)N1C[C@H](C)[C@@H](CN(C)C(=O)Nc2ccccc2)Oc2ccc(NC(=O)Cc3ccccc3)cc2C1=O | 29.2 | 34.0
O=C(NC1CCCCC1)N1CC(=O)N2[C@H](CO)[C@@H](c3ccc(/C=C/c4ccccc4)cc3)[C@H]2C1 | ? | nt
COc1ccc(NC(=O)N2CC3(C2)CN(C(=O)c2cccnc2)[C@H](CO)c2[nH]c4cc(OC)ccc4c23)cc1 | 10.3 | 0.0
C[C@@H]1CN([C@@H](C)CO)C(=O)c2cc(NC(=O)CCC(F)(F)F)ccc2O[C@@H]1CN(C)S(=O)(=O)c1ccc(Cl)cc1 | -10.4 | -4.3
COc1ccc(S(=O)(=O)Nc2ccc3c(c2)CC(=O)N([C@@H](C)CO)C[C@@H](C)[C@@H](CN(C)Cc2ccccc2)O3)cc1 | -29.3 | -15.0
CO[C@@H]1CN(C)C(=O)c2cc(NC(C)=O)ccc2OC[C@@H](C)N(C(=O)c2ccccc2)C[C@@H]1C | 5.6 | 0.7
O=C(C[C@@H]1C[C@H]2c3cc(NC(=O)C4CCOCC4)ccc3O[C@H]2[C@@H](CO)O1)NCc1cc(F)ccc1F | 1.0 | 4.3
COc1ccc(S(=O)(=O)Nc2ccc3c(c2)C(=O)N([C@@H](C)CO)C[C@@H](C)[C@@H](CN(C)Cc2ccc(C(F)(F)F)cc2)O3)cc1 | -26.8 | -19.4
CO[C@@H]1CN(C)C(=O)c2ccc(NC(=O)Nc3ccccc3F)cc2OC[C@@H](C)N(Cc2ccccc2F)C[C@H]1C | -5.8 | -5.4
C[C@H](NC(=O)C[C@H]1C[C@H]2c3cc(NC(=O)c4cccnc4)ccc3O[C@H]2[C@@H](CO)O1)c1ccccc1 | -19.4 | -3.2
C[C@H]1CN([C@@H](C)CO)C(=O)c2cc(NC(=O)c3ccncc3)ccc2O[C@@H]1CN(C)S(=O)(=O)c1ccccc1 | 12.7 | 14.5
COc1cccc(CN2CC3(CCN(Cc4ccccn4)CC3)c3c([nH]c4cc(OC)ccc34)[C@H]2CO)c1 | -7.4 | -7.2
CCC(=O)N1CC(=O)N2[C@H](C1)[C@@H](c1ccc(C#Cc3cccc(OC)c3)cc1)[C@@H]2CO | -25.2 | -23.8
CCCNC(=O)[C@H]1[C@H](CO)[C@H]2Cn3c(ccc(-c4ccccc4F)c3=O)[C@@H]1N2C(=O)CC | 4.8 | 6.0
C[C@H]1CCCCO[C@H](CN(C)C(=O)CCCN(C)C)[C@@H](C)CN([C@@H](C)CO)C(=O)c2cc(NS(C)(=O)=O)ccc2O1 | 2.8 | -1.8
COc1ccc(CN(C)C[C@H]2Oc3ccc(NS(=O)(=O)c4ccc(C)cc4)cc3C(=O)N([C@H](C)CO)C[C@@H]2C)cc1 | -2.3 | -3.7
Cc1ccccc1-c1ccc2c(c1)O[C@@H](CN(C)C)[C@H](C)CN([C@@H](C)CO)S2(=O)=O | ? | nt

7 records picked at random from the list so far, as already listed:
SMILES | Vaccinia inh | Vaccinia inh Venus
CO[C@H]1CN(C)C(=O)c2ccc(NC(=O)C3CCC3)cc2OC[C@H](C)N(Cc2nccs2)C[C@H]1C | -5.1 | -8.6
COc1ccc(S(=O)(=O)Nc2ccc3c(c2)C(=O)N([C@@H](C)CO)C[C@H](C)[C@@H](CN(C)Cc2ccc(C(F)(F)F)cc2)OCCCC[C@@H](C)O3)cc1 | ? | nt
COc1ccc(NC(=O)Nc2ccc3c(c2)C(=O)N([C@H](C)CO)C[C@H](C)[C@H](CN(C)S(=O)(=O)c2ccccc2)O3)cc1 | -2.9 | -1.8
C[C@H]1CN([C@@H](C)CO)C(=O)c2cc(NC(=O)c3ccncc3)ccc2O[C@@H]1CN(C)S(=O)(=O)c1ccccc1 | 12.7 | 14.5
N#Cc1ccc(-c2ccc3c(c2)[C@H]2[C@H](CCN2C(=O)C2CCC2)[C@H](CO)N3)cc1 | ? | nt
N#Cc1ccc(-c2ccc([C@@H]3[C@H]4CN(C(=O)C5CCCCC5)CC(=O)N4[C@H]3CO)cc2)cc1 | -15.1 | -23.3
C[C@@H]1CN([C@@H](C)CO)C(=O)c2cc(NC(=O)CCC(F)(F)F)ccc2O[C@@H]1CN(C)S(=O)(=O)c1ccc(Cl)cc1 | -10.4 | -4.3

(list continues)
SMILES | Vaccinia inh | Vaccinia inh Venus
CCC(=O)N1C[C@@H](C)[C@H](OC)CN(C)C(=O)c2cc(NC(=O)COC)ccc2OC[C@@H]1C | 15.3 | 5.5
COCC(=O)N1C[C@@H]2[C@H](c3ccccc31)[C@@H](CO)N2C(=O)C1CCCCC1 | 7.8 | 10.7
C[C@@H]1CCCCO[C@@H](CN(C)C(=O)Nc2ccc3c(c2)OCO3)[C@H](C)CN([C@H](C)CO)C(=O)c2cc(NS(=O)(=O)c3ccccc3)ccc2O1 | -8.2 | -8.8
O=C(c1ccncc1)N1CCCCN2[C@H](CO)[C@H](c3ccc(-c4ccccc4)cc3)[C@H]2C1 | 6.8 | -0.2
COc1ccc(NC(=O)N[C@H]2CC[C@H](CCn3cc(C4(O)CCCC4)nn3)O[C@H]2CO)cc1 | 5.6 | 6.7
C/C=C/c1cnc2c(c1)C(=O)N([C@H](C)CO)C[C@H](C)[C@H](CN(C)Cc1ccccc1F)O2 | -20.6 | -16.5
CCNC(=O)C[C@H]1CC[C@@H]2[C@H](COc3ccc(NC(C)=O)cc3C(=O)N2C)O1 | 9.2 | 6.5
CCC(=O)N1CC2(C1)[C@H](c1ccc(-c3cccc(F)c3)cc1)[C@H](CO)N2CC1CC1 | -16.6 | -8.7
COc1ccc2c3c([nH]c2c1)[C@@H](CO)N(C(=O)Nc1c(C)noc1C)CC31CN(CC2CCCCC2)C1 | -27.9 | -23.3
C[C@@H]1CN([C@H](C)CO)C(=O)CCCn2nncc2CO[C@H]1CN(C)S(=O)(=O)c1ccc(-c2ccccc2)cc1 | -4.5 | -2.1
CO[C@H]1CN(C)C(=O)c2cc(NC(=O)c3ccc4c(c3)OCO4)ccc2OC[C@@H](C)N(CC2CC2)C[C@@H]1C | 3.1 | 12.2
Cc1cccc(S(=O)(=O)N2[C@@H]3CNC[C@H]2C3c2ccc(-c3ccncc3)cc2)c1 (stereo partly drawn) | -20.5 | -4.2
Cc1nn(C)cc1NC(=O)C[C@H]1CC[C@H]2[C@@H](COc3ccc(NC(=O)Nc4cccc(Cl)c4)cc3C(=O)N2C)O1 | 25.0 | 13.0
O=C(C[C@H]1C=C[C@@H](NC(=O)c2ccc(F)cc2)[C@@H](CO)O1)NCCc1ccncc1 | -5.0 | 7.0
CCC(=O)N1CC2(C1)[C@@H](c1ccc(-c3ccccc3C)cc1)[C@@H](CO)N2C(=O)CC | 12.8 | 11.0
Cc1nc(N2[C@H](CO)[C@H](c3ccccc3)[C@H]2CNCC2CCCCC2)sc1C | -24.4 | -9.5
CS(=O)(=O)N1[C@@H]2Cn3c(ccc(-c4ccc(F)cc4)c3=O)[C@H]1[C@@H](C(=O)N1CCOCC1)[C@@H]2CO | 16.6 | 14.0
COCC(=O)N1CC2(CCN(Cc3cccnc3)CC2)c2c(n(C)c3cc(OC)ccc23)[C@@H]1CO | -7.9 | -10.7
Cc1noc(C)c1NC(=O)N(C)C[C@@H]1Oc2c(NC(=O)CCCCCC(=O)Nc3ccccc3N)cccc2C(=O)N([C@H](C)CO)C[C@@H]1C | 10.0 | 6.2
C[C@@H]1CN([C@H](C)CO)C(=O)c2cccc(NC(=O)Nc3ccc4c(c3)OCO4)c2O[C@H]1CN(C)Cc1ccc(-c2ccccc2)cc1 | 9.1 | -1.1
CN(C)C(=O)c1ccc(-c2ccc([C@@H]3[C@@H](CO)N4C(=O)CN(C(=O)C5CCCCC5)C[C@H]34)cc2)cc1 | 3.6 | 2.2
COc1ccc2c3c([nH]c2c1)[C@H](CO)N(C(=O)C1CCC1)CC31CN(S(C)(=O)=O)C1 | 10.7 | -1.8
CCC(=O)N(C)C[C@H]1Oc2cc(C#Cc3ccncc3)ccc2S(=O)(=O)N([C@H](C)CO)C[C@@H]1C | ? | nt
O=C(N[C@@H]1CC[C@@H](CCNS(=O)(=O)c2ccc(F)cc2)O[C@@H]1CO)C1CC1 | 0.7 | 1.8
C[C@@H]1CN([C@H](C)CO)C(=O)c2cc(NC(=O)C3CC3)ccc2O[C@@H]1CN(C)Cc1ccc(Oc2ccccc2)cc1 | -34.8 | -27.4
Cc1ccc(S(=O)(=O)N[C@H]2CC[C@H](CCNC(=O)Nc3ccc(Cl)cc3)O[C@@H]2CO)cc1 | -30.3 | -31.1
COc1cccc(NC(=O)N(C)C[C@H]2Oc3cc(C#CC4(O)CCCC4)ccc3S(=O)(=O)N([C@@H](C)CO)C[C@@H]2C)c1 | -31.1 | -31.0
COC(=O)C[C@@H]1C=C[C@H](NS(=O)(=O)c2ccccc2F)[C@H](CO)O1 | -4.2 | -6.9
CC(=O)N1CC(=O)N2[C@H](CO)[C@@H](c3ccc(-c4ccc(C)cc4)cc3)[C@H]2C1 | -2.5 | -32.2
CN1C(=O)c2cc(NS(C)(=O)=O)ccc2OC[C@@H]2O[C@H](CC(=O)N3CCOCC3)CC[C@H]21 | 7.3 | 11.2
COc1ccc(S(=O)(=O)Nc2ccc3c(c2)C(=O)N([C@@H](C)CO)C[C@@H](C)[C@@H](CN(C)Cc2ccncc2)O3)cc1 | 18.3 | 8.9
CCN(C[C@H]1N[C@H](CO)[C@H]1c1ccc(C2=CCCC2)cc1)C(=O)c1cccnc1 | ? | nt
C[C@H](CO)N1C[C@H](C)[C@@H](CN(C)Cc2ccncc2)Oc2ccc(NC(=O)CCN3CCOCC3)cc2C1=O | 18.1 | 8.3
O=C(CN1CCOCC1)NCC[C@@H]1CC[C@@H](NC(=O)Nc2ccc(F)cc2)[C@@H](CO)O1 | 4.7 | 13.2
C[C@@H]1CCCCO[C@@H](CN(C)Cc2ccncc2)[C@H](C)CN([C@H](C)CO)C(=O)c2cc(NS(=O)(=O)c3ccccc3)ccc2O1 | -9.0 | -16.7
COCCN(C[C@H]1N[C@H](CO)[C@H]1c1ccc(-c2cccc(F)c2)cc1)C(C)=O | -13.3 | -0.6
C[C@@H]1CN([C@H](C)CO)C(=O)c2cc(NS(=O)(=O)c3ccccc3)ccc2O[C@@H](C)CCCCO[C@@H]1CN(C)C(=O)c1ccccc1 | 17.8 | 5.6
Cc1ccc(CN2CC(=O)N3[C@H](CO)[C@H](c4ccc(Br)cc4)[C@H]3C2)cc1 | ? | nt
